Source: PubChem
Vaccinia Venus = vaccinia inhibition (Venus reporter) | Vaccinia virus Venus reporter expression, fluorescence | Potency, µM (doses to about 36.5 µM), for inactives: top-dose activity change, negative = inhibition, actives largely listed as inhibitors | 330,000 tested, 0.46% active | AID 720580; active means well fitted inhibition curve with a large enough effect; inconclusive means small, poorly fitted or top-dose-only effect; inactive means no such curve, though single readings can be large or run the other way; tested in A549 cells; further: nearly all actives have a fitted effect of over 30% in size; inactives centre near -10
Vaccinia mCherry = vaccinia inhibition (mCherry reporter). Vaccinia virus mCherry reporter infection, fluorescence; about a quarter of the inactives have no number. Potency, µM (top dose mostly 36.5 µM), for inactives: at the highest dose activity change, negative = inhibition, actives largely listed as inhibitors. 310,000 tested, 0.63% active. AID 720579; active = well fitted inhibition curve with a large enough effect; inconclusive = small, poorly fitted or top-dose-only effect; inactive = no such curve, though single readings can be large or run the other way; tested in A549 cells; further: nearly all actives have a fitted effect of over 35% in size; inactives centre near -10
Active calls of the source: *; i = inactive; ? = inconclusive; nt = no result given; [ ] = another dose, or the depositor's remark. On the % scale 0 is the no-effect control and ±100 the full control effect; potency means the concentration at half of the fitted maximal effect. Rows are unselected; overall some 0.87% were active at least once.

item | compound | Vaccinia Venus | Vaccinia mCherry
1 | CCOc1ccc(Cl)cc1S(=O)(=O)N1CCC(C(=O)NCc2ccncc2)CC1 | -3.2% | -17.2%
2 | O=C1CCC/C=C\C[C@@H](CC(=O)N(CCO)Cc2ccccc2)C(=O)N2CCC[C@H]2CO1 | 1.0% | -22.6%
3 | CC(=O)N1CCCc2cc(S(=O)(=O)Nc3ccc4c(c3)OCO4)ccc21 | -12.1% | -20.9%
4 | O=C(Cn1c(=O)cnc2ccccc21)N1CCCc2ccccc21 | -5.9% | 10.0%
5 | O=C(NC1CCCC1)C1CCCN1C(=O)Nc1ccccc1Cl (stereo unspecified) | 1.1% | -10.0%
6 | CCOc1ccc(C(=O)NCc2nc3cccnc3n2Cc2cccc(OC)c2)cc1 | -7.6% | -7.2%
7 | O=C(O)c1nn(CCOc2ccccc2F)c(=O)c2ccccc12 | -23.7% | -8.5%
8 | Cc1cccnc1-n1c(C)nc2ccccc2c1=O | -6.2% | nt
9 | CCCCN(CCCNC(=O)c1ccc(Sc2ccc(Cl)cc2)c(NC(C)=O)c1)c1ccccc1 | ? | ?
10 | Cc1ccc(NC(=S)N2CCN(CCN3C(=O)c4cccc5cccc(c45)C3=O)CC2)cc1 | -2.9% | i
11 | COc1cccc(CN2CCC2(C)C(=O)Nc2ccc(C)c(O)c2)c1F (stereo unspecified) | -13.5% | 6.0%
12 | O=C(/C=C/c1cccc(Br)c1)Nc1nn[nH]n1 | -3.9% | -2.2%
13 | CCc1nnc(NC(=O)c2c(-c3ccccc3)noc2C)s1 | 8.1% | -7.7%
14 | CC(=O)N1CCc2cc(S(=O)(=O)CCC(=O)N3CCN(c4ccccc4)CC3)ccc21 | -11.8% | i
15 | CCOc1ccc(N2C(=O)CN(C)C2=S)cc1 | -8.1% | i
16 | CCOc1ccc2c(c1)c(=O)c(C(=O)c1ccc(CC)cc1)cn2CC(=O)Nc1ccc2c(c1)OCCO2 | -28.7% | -27.7%
17 | O=C(COc1ccccc1F)N1CCCc2ccccc21 | -15.9% | i
18 | O=C(O)C1CC(c2ccc(F)cc2)=NO1 (stereo unspecified) | -5.2% | i
19 | CCOC(=O)C1(Cc2ccccc2)CCCN(Cc2ccc(OCCO)cc2)C1 (stereo unspecified) | -10.1% | -6.0%
20 | CN(C)/C=C/C(=O)c1cnc2n(c1=O)CCS2 | -1.4% | i
21 | CC1(NC(=O)CC(c2ccccc2)(c2ccccc2)c2ccccc2)CCN(Cc2ccc(-c3ccccc3)cc2)C1=O (stereo unspecified) | ? | -6.1%
22 | CS/C(=N\N(C)C(N)=O)c1ccccc1 | -7.6% | i
23 | CC(C)CC1C(C#N)=C(N)Oc2c1c(=O)oc1ccccc21 (stereo unspecified) | 2.1% | i
24 | NC(=O)Cc1ccc2c(c1)[nH]c1ccccc12 | -4.7% | ?
25 | COc1ccc(CCNC(=O)COC(=O)c2ccccn2)cc1 | -3.9% | -5.9%
26 | COc1ccccc1C(=O)N/N=C(\C)c1cccnc1 | -7.0% | i
27 | Cc1ccc(-c2cc(C(=O)O)c3sc(N4CCCCC4)nc3n2)cc1 | -5.9% | -7.4%
28 | COc1ccc(CC(=O)Nc2cccc(-c3ccc4nnc(C)n4n3)c2)cc1 | 13.6% | -14.5%
29 | Cc1ccc(S(=O)(=O)Cn2nnnc2C(c2ccccc2)N2CCN(c3ccccc3)CC2)cc1 (stereo unspecified) | -4.9% | -6.6%
30 | COc1ccc(CCNC(=O)C2CCN(S(=O)(=O)c3ccc(Cl)cc3)CC2)cc1OC | -13.3% | -11.6%
31 | CCOC(=O)c1nn2c(C(F)(F)F)cc(-c3ccc(C)cc3)nc2c1Cl | 1.7% | -13.0%
32 | CCOC(=O)N1CCN(C(=O)C2CC(c3ccc(F)cc3)=NO2)CC1 (stereo unspecified) | 1.6% | 5.4%
33 | CCc1noc(C)c1C(=O)Nc1ccc(S(=O)(=O)N2CCC(C)CC2)cc1 | -17.3% | -27.8%
34 | CCC1(OC(=O)CN(C)C)C(=O)OCc2c1cc1n(c2=O)Cc2cc3c(N)cccc3nc2-1 (stereo unspecified) | ? | ?
35 | O=S(=O)(Nc1cccc(S(=O)(=O)N2CCCCCC2)c1)c1ccc(F)cc1F | -7.5% | -5.0%
36 | CC(CCN1CCC(CN2C(=O)C(=O)NC[C@@H]2Cc2ccccc2)CC1)c1ccccc1 (stereo partly specified) | -4.7% | i
37 | CCOCC(=O)OCC(=O)Nc1cc(OC)c([N+](=O)[O-])cc1C | -1.3% | -2.0%
38 | CC(C)(C)[C@H]1COC(=O)CCCC/C=C\C[C@H](CC(=O)N(CCO)Cc2ccccc2)C(=O)N1 | -12.2% | -3.3%
39 | CC(=O)c1c(C)[nH]c(C(=O)OCC(=O)Nc2ccc3c(c2)OCCO3)c1C | -14.1% | -29.5%
40 | COc1ccc(N(C)S(=O)(=O)c2cccc(C(=O)OCC(=O)c3c(N)n(C)c(=O)n(C)c3=O)c2)cc1 | -17.0% | -12.3%
41 | CCn1c(SCC(=O)Nc2ccccc2C(=O)OC)nnc1-c1cccc(C)c1 | -4.7% | i
42 | CCOC(=O)N1CCN(C(=O)CN(Cc2ccc(Cl)cc2)S(C)(=O)=O)CC1 | -7.7% | nt
43 | COCCNc1nc2ccccc2nc1NS(=O)(=O)c1ccc(C)cc1C | -19.1% | -18.9%[1.46 µM]
44 | COc1ccccc1NC(=O)C(C)Nc1ccc(C)c(Cl)c1 (stereo unspecified) | -13.4% | -2.1%
45 | CCS(=O)(=O)n1nc(-c2ccc(Cl)cc2)nc1SCc1ccccc1 | -24.2% | -20.2%
46 | CC(=O)Nc1ccc(S(=O)(=O)NN=c2sc3ccccc3n2C)cc1N | -5.1% | i
47 | CS(=O)(=O)Nc1ccc(C(=O)Nc2ccccc2Cl)cc1 | -6.8% | -6.9%
48 | CCOC(=O)c1c(C)n(-c2ccccc2)c2ccc(OC(=O)c3cc(OC)cc(OC)c3)cc12 | 2.8% | -11.5%
49 | Cc1ccc2c(=O)cc(CSc3ncn[nH]3)[nH]c2c1C | -4.3% | -1.5%
50 | CC(=O)Nc1cccc(C(=O)OCC(=O)c2ccc3c(c2)OCO3)c1 | -21.0% | -2.1%
51 | NC(=S)C1COc2ccccc2O1 (stereo unspecified) | -2.8%[7.34 µM] | i[7.34 µM]
52 | CC(C)(CO)Nc1ccc([N+](=O)[O-])cc1[N+](=O)[O-] | -0.2% | nt
53 | CCOC(=O)N1CCC(NC(=O)CCC(=O)N2CC(C)Oc3ccc(C)cc32)CC1 (stereo unspecified) | -13.5% | nt
54 | CC(C)Oc1ccc(C(=O)NC(=S)Nc2ccc(Cl)c(C(=O)O)c2)cc1 | -8.0% | i
55 | COc1ccccc1NC(=O)NCCCN1CCN(c2ccc(F)cc2)CC1 | -3.3% | -8.8%
56 | COc1ccc(-n2cc(C(=O)NC(C)c3ccccc3)c3ccccc3c2=O)cc1 (stereo unspecified) | -11.4% | -13.0%
57 | COc1ccc(S(=O)(=O)NCCN2CCNC2=O)cc1OC | -3.3% | -13.3%
58 | CC(C)(C)C(=O)Nc1cc(C(F)(F)F)ccc1N1CCOCC1 | 4.0% | -13.0%
59 | Cc1nc2c(-c3ccc(Cl)cc3)cnn2c2c1CCC2 | 11.5% | i
60 | Cc1ccccc1CNC(=O)C1CCN(c2nnc(-n3c(C)ccc3C)s2)CC1 | -17.0% | -16.2%

(cont.)
item | compound | Vaccinia Venus | Vaccinia mCherry
61 | Cc1ccc(Nc2nnc(SCC(=O)c3ccc(Br)s3)s2)c(C)c1 | -18.8% | -23.8%
62 | COc1ccc(CN(C(=O)c2snc(C(N)=O)c2N)C(C(=O)NC2CCCC2)c2ccc(OC)c(OC)c2)cc1 (stereo unspecified) | -3.0% | -2.8%
63 | CCOC(=O)c1c(-c2ccccc2Cl)csc1NC(=O)c1cc(S(=O)(=O)N2CCOCC2)ccc1C | -14.3% | -25.7%
64 | COCCCn1c(-c2cccc(Cl)c2)nc2c1c(=O)[nH]c(=O)n2Cc1ccccc1 | -5.3% | 6.3%
65 | Cc1onc(-c2ccccc2Cl)c1C(=O)Nc1cccc2nsnc12 | -5.6% | -12.5%
66 | COc1ccc(NC(=O)CN2CCN(Cc3ccccc3)S2(=O)=O)c(OC)c1 | -5.5% | -13.1%
67 | COc1cc(OC)c(/C=C/c2cc[n+](C)c3ccccc23)c(OC)c1 | ? | ?
68 | CCOC(=O)C1(Cc2ccccc2Cl)CCN(S(C)(=O)=O)CC1 | -2.2% | -15.0%
69 | Clc1ccc(Cc2noc(Cc3ccccc3)n2)cc1Cl | -6.7% | -12.6%
70 | N#Cc1ccc(NC(=O)CN2C(=O)NC3(CCCC3)C2=O)cc1Cl | -3.6% | -2.6%
71 | O=C(NCc1ccccn1)c1cc2ccccc2oc1=O | -13.9% | i
72 | COC(=O)c1ccc(OC(=O)/C=C/c2ccco2)cc1 | 10.9% | -10.1%
73 | COc1ccc(C(=O)NCCN2C(=O)S/C(=C\c3cccnc3)C2=O)cc1[N+](=O)[O-] | -19.5% | i
74 | N/C(=N\OC(=O)c1cccs1)c1cccc([N+](=O)[O-])c1 | -14.0% | -7.0%
75 | CCOC(=O)Cc1ccc(NC(=O)N2CC(CC)Oc3ccccc32)cc1 (stereo unspecified) | -0.8% | 2.6%
76 | COc1cc2cc(CN(CCCN3CCOCC3)Cc3nnnn3Cc3ccccc3)c(=O)[nH]c2cc1OC | -12.7% | i
77 | CC(=O)Nc1cc(NC(=O)C2C3C=CC(C3)C2C(=O)O)ccc1Cl (stereo unspecified) | -15.8% | -2.8%
78 | COc1cccc(CNC(=O)Cc2c(C(=O)O)[nH]c3ccccc23)c1 | -9.0% | i
79 | CCOC(=O)c1ccccc1Nc1cc(C)nc2nc(-c3ccco3)nn12 | -16.6% | -14.7%
80 | CC1(C)Cc2nc3sc(C(=O)NCCCO)c(N)c3cc2CS1 | -18.9% | -19.4%
81 | Cc1ccc2c(c1)-c1onc(C(=O)N3CCN(c4cccc(C)c4C)CC3)c1CO2 | -1.4% | -3.4%
82 | C/C(=N/NC(=O)c1ccc(O)cc1)c1cccc([N+](=O)[O-])c1 | -13.5% | i
83 | CC1CCCN(CCCNC(=O)C2CC(=O)N(c3ccc(F)c(Cl)c3)C2)C1 (stereo unspecified) | -11.1% | i
84 | Cc1cc(C)n(-c2nc(C)nc(NCc3ccccc3)n2)n1 | -27.5% | nt
85 | CC(=O)NC(Cc1ccc(N(CCCl)CCCl)cc1)C(=O)NC(C(=O)O)C(C)C (stereo unspecified) | -8.4% | i
86 | Clc1ccc2c(c1)C(c1ccccc1Cl)=NCc1nnc(Br)n1-2 | ? | 12.6µM*
87 | C=CCNC(=S)NNC(=O)c1ccc(OCCC)cc1 | -8.7% | nt
88 | COc1ccc(-c2noc(CCCC(=O)Nc3cccnc3)n2)cc1OC | 18.8% | i
89 | CCN1CCN(C(=O)C2(NC(=O)Nc3cccc(F)c3)CCCCC2)CC1 | -5.6% | nt
90 | CC(=O)OCC1OC(Nc2cccc(C)c2)C(OC(C)=O)C(OC(C)=O)C1OC(C)=O (stereo unspecified) | -6.9% | i

Reformatted as labelled records: 2 of the compounds above.
#80 CC1(C)Cc2nc3sc(C(=O)NCCCO)c(N)c3cc2CS1
  Vaccinia Venus: -18.9%	Vaccinia mCherry: -19.4%

#78 COc1cccc(CNC(=O)Cc2c(C(=O)O)[nH]c3ccccc23)c1
  Vaccinia Venus: -9.0%	Vaccinia mCherry: i

The results go on.
item | compound | Vaccinia Venus | Vaccinia mCherry
91 | O=C(NNS(=O)(=O)c1ccc(F)cc1)c1cc2ccccc2cc1O | -5.7% | -28.1%
92 | COc1ccc(C2=CC(c3ccco3)n3ncnc3N2)cc1 (stereo unspecified) | -1.3% | i
93 | COC(=O)C1C(=O)CC(C)(O)C(C(=O)OC)C1c1ccccc1F (stereo unspecified) | -2.4% | -13.8%
94 | C=CCNC(=O)COc1cc(C)cc(C)c1C | -11.8% | i
95 | CC(C)c1nnc(NC(=O)CCC(=O)N2CCN(C3c4ccccc4-c4ccccc43)CC2)s1 | -12.3% | i
96 | CCOc1ccccc1CN(CCc1ccc2c(c1)OCO2)Cc1cccc(OC)c1OC | -6.2% | -18.3%
97 | Cc1ccc(S(=O)(=O)Cn2nnnc2CN2CCN(Cc3ccc4c(c3)OCO4)CC2)cc1 | -20.4% | -0.5%
98 | COc1ccccc1OCC(=O)Nc1c2c(nn1-c1ccccc1)CS(=O)(=O)C2 | -1.5% | -10.2%
99 | COC(=O)c1ccccc1S(=O)(=O)N1CCC(c2nc3ccccc3o2)CC1 | -13.1% | -18.8%
100 | O=C(NC12CC3CC(CC(C3)C1)C2)N1CCC(O)(c2ccc3c(c2)OCO3)CC1 | -12.6% | -21.9%
101 | CC[C@H]1C2C[C@H]3[C@@H]4N(C)c5ccccc5C45C[C@H](C2[C@H]5O)N3[C@@H]1O (stereo partly specified) | -3.4% | i
102 | Cc1c(/C=N/O)c2ccccn2c1C(=O)c1ccc(F)cc1 | -29.4% | -29.3%
103 | Cc1ccc(NS(=O)(=O)c2cccc(C(=O)NCCCn3ccnc3)c2)cc1 | -10.9% | -12.5%
104 | COc1nccnc1NS(=O)(=O)c1ccc(NS(=O)(=O)c2ccc(NC(C)=O)cc2)cc1 | 3.3% | -4.1%
105 | O=C(NCCc1csc(-c2cccc(F)c2)n1)C(=O)Nc1cc(F)ccc1F | 11.9% | -0.5%
106 | O=c1c2nccnc2[nH]c(=S)n1Cc1ccccc1 | 0.0% | -12.9%
107 | Cc1ccc2cccc(NC(=O)c3cccc4c(Br)cccc34)c2n1 | 5.3% | -10.0%
108 | c1ccc(CCc2nc(-c3ccccn3)no2)cc1 | -15.0% | -14.6%
109 | O=C1c2cccnc2C(Nc2ccc(Cl)cc2)N1Cc1cccs1 (stereo unspecified) | 3.2% | -4.6%
110 | Cc1ccc(S(=O)(=O)Nc2cc(C)c(O)c(Sc3n[nH]c(C)n3)c2)cc1 | -11.6% | -9.4%
